# Screening data deposited in PubChem by National Center for Advancing Translational Sciences (NCATS).
# HPGD inh: qHTS Assay for Inhibitors of HPGD (15-Hydroxyprostaglandin Dehydrogenase); 15-hydroxyprostaglandin dehydrogenase [NAD(+)] (Homo sapiens), P15428; purified HPGD, NADH fluorescence kinetic, PGE2 substrate; Potency, µM, inactives show top-dose activity change, negative = inhibition, most hits filed as inhibitors; hit rate 4.3% among 150,000; AID 894, 2007; active = well fitted inhibition curve with a large enough effect (not every such curve was filed as active); inconclusive = small, poorly fitted or top-dose-only effect, or another doubt; inactive = no such curve, though single readings can be large or run the other way;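 also: top concentration of the series not given in the record; plate controls included wells without enzyme; inactives centre near -10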
# Target sequence (P15428 whole entry, looked up): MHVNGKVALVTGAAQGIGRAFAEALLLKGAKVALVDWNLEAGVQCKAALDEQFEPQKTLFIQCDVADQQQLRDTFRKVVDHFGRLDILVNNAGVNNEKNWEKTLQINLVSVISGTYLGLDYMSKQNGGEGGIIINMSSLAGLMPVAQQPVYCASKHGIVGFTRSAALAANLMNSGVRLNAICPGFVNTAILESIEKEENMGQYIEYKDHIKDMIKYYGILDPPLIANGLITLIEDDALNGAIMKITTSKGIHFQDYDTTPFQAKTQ
#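 20 nM HPGD preincubated 15 min at room temperature with compound in 50 mM Tris-HCl pH 8, 0.01% Tween 20. Started with 1 mM NAD+ and 30 uM prostaglandin E2; NADH fluorescence (360/450 nm) read 5 times over 30-s intervals, last minus first.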
# Starred values were filed as active, the others as inactive; ? = inconclusive; & = joins results of further samples. % is scaled to controls: 0 for no effect and ±100 for the full control effect; potency is read from the fitted curve at half-maximal effect. The list is partial; rates above refer to the full screens.
HPGD inh,Compound
-4%,COc1ccc(NC2SC(=O)N(CC(=O)O)C2=O)cc1 (configuration not stated)
-15%,O=Cc1ccc(OC(=O)C2CC(=O)N(c3ccc(F)cc3)C2)cc1 (configuration not stated)
14µM*,O=S1(=O)C=C(Sc2nnc(-c3ccccc3)o2)c2ccccc21
-14%,CCOC(=O)c1cnc2nc(Cc3ccccc3)[nH]n2c1=O
-8%,Clc1cccc(Cl)c1COn1nnc2ccccc21
-11%,Clc1ccccn1
-10%,CCCCC(=O)Nc1ccc(C(=O)Nc2nc(CC(=O)OCC)cs2)cc1
-9%,Cn1c(CNC2CCCCC2)c(C#N)c2ccccc21
-9%,CCOC(=O)N1CCN(S(=O)(=O)c2ccc(F)c(C(=O)Nc3ccc(C(C)C)cc3)c2)CC1
-12%,CCn1c(=O)cc(O)c2c(=O)n(C)c(=O)n(C)c21
-16%,CN(C)S(=O)(=O)c1cccc(C(=O)Nc2cc(Cl)ccc2O)c1
?,O=c1cc(-c2ccccc2)[nH]c2nc3ccccc3n12
-3%,O=C1CCC[C@@H]2CC(Nc3ccc(F)cc3F)C[C@@H]3CCN1[C@H]23 (some centres not stated)
-13%,NC(=O)CCCc1nc(-c2ccccc2Cl)no1
-14%,Cc1ccc(NC(=O)c2cc(-n3cnnc3)ccc2Cl)c(C)c1
-1%,Cc1cc(NC(=O)Nc2ccccc2)n(-c2ccccc2)n1
-18%,Cc1ccc(C(=O)c2ccccc2C(=O)OCC(=O)Nc2ccc(SC(F)F)cc2)cc1
?,COc1ccc(-n2cc(-c3ccccc3)[nH]c2=S)cc1
?,O=C(NS(=O)(=O)c1ccccc1)c1ccccc1F
-21%,COc1ccc(Cn2c(-c3ccco3)nc3oc4ccccc4c(=O)c3c2=O)cc1
-15%,CCCc1nnc(SCc2ccc(C(=O)OC)o2)n1N
0.71µM*,O=c1c2ccccc2sn1-c1ccc(S(=O)(=O)N2CCCC2)cc1
-11%,CCc1nnc(NC(=O)NC(C)(C)C)s1
-14%,COc1ccc(-c2nnc3n2N=C(C)CS3)cc1OC
-8%,O=C(CN1C(=O)CCSc2ccccc21)Nc1cccc(F)c1
?,N#Cc1ccc(NC(=O)c2nc(-c3ccccc3)n(-c3ccccc3)n2)cc1
-5%,COc1ccc(CCNC(=O)CN2CCC(n3nnc4cc(F)ccc43)CC2)cc1OC
-3%,COc1ccc(NC(=O)CSc2nc3c(cc2C#N)CN(C)CC3)cc1
-14%,CN(Cc1ccccc1)C(=O)CCS(=O)(=O)c1ccc2c(c1)n(C)c(=O)c(=O)n2C
-11%,CC(Sc1ccsc1[N+](=O)[O-])C(=O)NCCc1ccc(Cl)cc1 (configuration not stated)

# Laid out differently: results already given.
> O=Cc1ccc(OC(=O)C2CC(=O)N(c3ccc(F)cc3)C2)cc1 (configuration not stated)
  HPGD inh: -15%

> O=S1(=O)C=C(Sc2nnc(-c3ccccc3)o2)c2ccccc21
  HPGD inh: 14µM*

# 4 entries from above in a different format.
smiles	HPGD inh
Clc1cccc(Cl)c1COn1nnc2ccccc21	-8%
Clc1ccccn1	-11%
CCCCC(=O)Nc1ccc(C(=O)Nc2nc(CC(=O)OCC)cs2)cc1	-10%
Cn1c(CNC2CCCCC2)c(C#N)c2ccccc21	-9%

# The listing continues.
HPGD inh,Compound
-9%,Cc1ccc(S(=O)(=O)N(C)C)cc1NC(=O)COC(=O)c1ccc2c(c1)OCO2
-6%,CCOC(=O)c1c(C)c(C(=O)NCc2ccccc2OC)c(C)n1C
-15%,O=C(Nc1ccccc1)N1CCc2ccccc2C1
-1%,COc1ccc(Cn2c(CCC(=O)NCc3ccco3)nc3cccnc32)cc1
-7%,Cc1cccc(NC(=O)c2cccc(N3C(=O)C4C5CCC(C5)C4C3=O)c2)c1C (configuration not stated)
0%,NC(=O)C1(N2CCCCC2)CCN(C2CC(=O)N(CCc3ccccc3)C2=O)CC1 (configuration not stated)
1%,CC(C)C(=O)Nc1ccc2c(c1)nc(CCN1CCN(C)CC1)n2C
-8%,CC1=C(C(=O)Nc2ccccc2C)C(c2ccc(C)o2)C2=C(CCCC2=O)N1 (configuration not stated)
?,CCOC(=O)CCC(NC(=O)c1cncc(O)c1)C(=O)OCC (configuration not stated)
-17%,COc1cc2[nH]c(=O)n(CCC(=O)N3CCC(N4CCCCC4)CC3)c(=O)c2cc1OC
4µM*,O=C1CCCC(O)=C1C(C#Cc1ccccc1)C1=C(O)CCCC1=O
-14%,O=C(C1CCCN1S(=O)(=O)c1cccc2cccnc12)N1CCc2ccccc21 (configuration not stated)
-14%,CCOCCCNS(=O)(=O)c1ccc(OC)c(Cl)c1Cl
?,O=C(COC(=O)c1ccccc1Nc1ccccc1)c1ccccc1
?,Cc1c(Cc2ccccc2)sc(NC(=O)c2ccco2)c1C(N)=O
-12%,Cn1cccc1C(=O)N1CCC[C@@]2(CCN(C(=O)Nc3cccc(C#N)c3)C2)C1
?,CCOc1cc(S(=O)(=O)NCc2ccco2)c(OCC)cc1-n1cnnn1
-4%,O=C(CN1CCN(c2nc(-c3ccccc3)cs2)CC1)Nc1ccc2c(c1)OCO2
-9%,CS(=O)(=O)N(CC(=O)N1CCN(c2ccccc2F)CC1)c1cccc(C(F)(F)F)c1
-4%,CN1CCN(C(=O)c2cccc(S(=O)(=O)N3CCCCC3)c2)CC1
0%,CCOC(=O)C1CCCN(Cc2cccc(Cl)c2)C1 (configuration not stated)
7.1µM*,O=C(CC(c1ccccc1)c1cc(Br)ccc1O)NCc1ccco1 (configuration not stated)
-12%,Cc1cccc(NC(=S)N=Nc2c(O)n(CN3CCOCC3)c3ccccc23)c1C
14µM*,COc1ccccc1C(=O)NCc1ccc2c(c1)OCO2
-14%,O=C1OCC2=C1C(c1ccc(F)cc1)Sc1ccccc1N2 (configuration not stated)
?,CCOC(=O)C1=C(C)N(CCCC(=O)O)C(=O)NC1c1ccccc1OS(=O)(=O)c1ccc(C)cc1 (configuration not stated)
4%,Cc1ccccc1NC(=O)c1ccccc1NC(=O)CCC(=O)O
-7%,CC1CC[C@@]2(OC1)OC1CC3C4CC[C@@H]5CC(O)CC[C@@]5(C)C4CC[C@]3(C)C1C2C (some centres not stated)
-2%,CCC1C/C(=C/c2cccs2)C(=O)/C(=C/c2cccs2)C1 (configuration not stated)
-9%,Cc1cc(C(=O)NNC(=S)NCc2ccccc2)cs1

# Six compounds out of the list, sorted by length of the SMILES, highest first.
HPGD inh,Compound
-7%,CC1CC[C@@]2(OC1)OC1CC3C4CC[C@@H]5CC(O)CC[C@@]5(C)C4CC[C@]3(C)C1C2C (some centres not stated)
-12%,Cn1cccc1C(=O)N1CCC[C@@]2(CCN(C(=O)Nc3cccc(C#N)c3)C2)C1
-12%,Cc1cccc(NC(=S)N=Nc2c(O)n(CN3CCOCC3)c3ccccc23)c1C
?,COc1ccc(-n2cc(-c3ccccc3)[nH]c2=S)cc1
-14%,CCOCCCNS(=O)(=O)c1ccc(OC)c(Cl)c1Cl
-9%,Cc1cc(C(=O)NNC(=S)NCc2ccccc2)cs1

# Carrying on:
HPGD inh,Compound
-11%,CCCCCCC(C)n1cc(C(C)=O)c(=O)n(C)c1=O (configuration not stated)
-10%,COc1ccc(C(=O)Nn2c(C3CCC3)nc3ccccc3c2=O)c(OC)c1
-16%,CCC(=O)Nc1cccc(-c2nnc(SCC(=O)c3ccccc3)n2C)c1
?,O=C(COc1ccc(Cl)cc1Cl)NC1CCSC1=O (configuration not stated)
-18%,O=C(CCCc1ccccc1)N1CCc2ccccc21
-1%,NC(=O)COC(=O)c1cccc(NS(=O)(=O)/C=C/c2ccccc2)c1
-3%,CCOc1ccc(NC(=O)C2CCN(S(=O)(=O)c3cccnc3)CC2)cc1
-7%,NC(=O)C[C@@H]1NC(=O)[C@H](CCC(=O)O)NC(=O)c2cc([N+](=O)[O-])cc(I)c2OCC[C@@H](C(N)=O)NC1=O
?,CCN(CC)[C@@H](C)CN1c2ccccc2Sc2ccccc21
-3%,CCCc1nc(SCC(=O)NCc2ccco2)c2c(=O)n(C)c(=O)n(C)c2n1
?,COc1ccc(CCNc2c(N)n(Cc3ccccc3)c(=O)[nH]c2=O)cc1OC
-2%,CC(=O)NC(Cc1cccc(C)c1)C(=O)NC1CCN(C(=O)c2ccc([N+](=O)[O-])cc2)CC1 (configuration not stated)
-3%,Cc1cc(Cl)cc(Br)c1OCCNCC(C)O (configuration not stated)
-5%,COc1nc(OC/C(N)=N/O)nc(N2CCOCC2)n1
-9%,COc1ccc(OC)c(N=C2C(=O)Nc3ccccc32)c1
-25%,CN(Cc1ccccc1)S(=O)(=O)c1cccs1
-8%,COc1cc(C)nc(NS(=O)(=O)c2ccc(C)cc2)n1
-6%,Cc1ccc(S(=O)(=O)N(C)c2ccccc2C(=O)NC2CCCC2)cc1
-12%&-6%&-5%&-3%&-8%&-18%&-14%,COc1ccc2c(c1)c(CC(=O)O)c(C)n2C(=O)c1ccc(Cl)cc1
-24%,CN1c2ccccc2-c2nc3ccccc3n2C1c1ccncc1 (configuration not stated)
-10%,COc1ccc(OCC(=O)Nc2cc(-c3nn4c(C)nnc4s3)ccc2C)cc1
-10%,Cc1cccc(NC(=O)CCc2ccc(S(=O)(=O)NC3CCCCC3)cc2)c1
-8%,COc1cc2c3c(c1OC)C1(C=CC(=O)C=C1)CC3N(C(=O)c1ccccc1)CC2 (configuration not stated)
-10%,CN(Cc1ccc(OC(F)F)cc1)C(=O)c1ccc2nccnc2c1
-6%,COC(=O)[C@@H](NC(=O)O[C@@H]1C(=O)c2cc(Br)ccc2O[C@H]1c1ccc2c(c1)OCO2)C(C)C
-11%,Cc1ccc2c(c1)N(CCC(=O)NCCCOC(C)C)C(=O)C(C)O2 (configuration not stated)
-6%,Cc1cc(C)nc(-n2nc(C)cc2NC(=O)c2cccc(S(=O)(=O)N3CCOCC3)c2)n1
-6%,O=C(Cc1cn(Cc2cccc(Cl)c2)c2ccccc12)N1CCCC1
-10%,CCOC(=O)c1c(C)[nH]c(C(=O)Cn2c(=O)oc3ccccc32)c1C
-4%,CCNC(=S)NNC(=O)Nc1ccccc1

# Next structures.
HPGD inh,Compound
-9%,CS(=O)(=O)N1CCC(C(=O)Nc2cc(C(F)(F)F)ccc2Cl)CC1
?,Cc1ccc(C)c2c1cc(C)c1nnc(SCC(=O)c3cccs3)n12
?,COc1ccc(-c2ccc(-c3nnc(Cc4ccc(OC)c(OC)c4)o3)cc2)cc1
-6%,CCN1CCCC1CNC(=O)c1cc(OC)c(OC)c(OC)c1 (configuration not stated)
?,CC(=O)N1CCC2(CC1)CN(c1ccccn1)C2
1%,O=C(C1CCCO1)N1CCN(c2ccc(F)cc2)CC1 (configuration not stated)
-12%,COc1cccc(-c2nn(-c3ccccc3)cc2C(=O)NCC(=O)O)c1
-16%,Cc1cccc(-n2c(O)c(C=Nc3ccccc3N)c(=O)[nH]c2=O)c1
-19%,CCCOC(=O)c1ccc(NC(=O)c2ccc(Br)o2)cc1
14µM*,Nc1c(C(=O)NCc2cccnc2)sc(=S)n1-c1ccccc1
-16%&-3%&-10%,O=c1[nH]cnc2c1ncn2C1OC(CO)C(O)C1O (configuration not stated)
-5%,CC(C)[C@H](NC(=O)c1ccc(Cl)c([N+](=O)[O-])c1)C(=O)NCc1ccc(F)cc1
-6%,O=C(COc1nc2ccccc2nc1N1CCOCC1)NC1CCCCC1
?,Cn1c(=O)c2c(nc(/C=C/c3cccc(Cl)c3)n2C)n(C)c1=O
-19%,Cc1nc2cc(NC(=O)NCc3ccc4c(c3)OCO4)ccc2o1
-7%,CCOC(=O)c1ccc(NC(=O)NS(=O)(=O)c2ccc(C)cc2)cc1
-10%,O=C(NCC1COCCO1)C1CCN(S(=O)(=O)c2ccccc2)CC1 (configuration not stated)
?,CC(C)c1nc2sc3c(SCC(=O)NCc4ccco4)ncnc3c2c2c1CCC2
-12%,CNc1nc2c(c(=O)[nH]c(=O)n2C)n1CCOC
-3%,CCOC(=O)Cn1cc(C(=O)C2CC2)c2ccccc21
-3%,CCOC(=O)C(/C=N/c1cc(C)nn1-c1ccccc1)=C(\C)O
18µM*,Cc1cc2c(cc(C(=O)NCc3cccnc3)n2Cc2ccc(Cl)cc2)o1
-1%,CCOCCCNC(=O)CN(Cc1ccc(Cl)cc1)S(C)(=O)=O
-14%,O=C(CCN1C(=O)S/C(=C/c2ccc(Cl)cc2)C1=O)N1CCOCC1
1%,CCc1cc[n+](-c2nc3ccccc3nc2[N-]S(=O)(=O)c2ccc(Br)s2)cc1
-8%,Cc1ccc(-n2c(C)n[nH]c2=S)cc1C
-22%,O=C(Nc1ccc(OC(F)(F)F)cc1)C1CCCN(S(=O)(=O)c2cccnc2)C1 (configuration not stated)
-3%,O=C(c1cnc2n(c1=O)CCS2)N1CCc2ccccc21
0%,COc1ccc(C2C(C#N)=C(N)OC3=C2C(=O)CCC3)cc1Cn1cc([N+](=O)[O-])cn1 (configuration not stated)
-2%,COc1ccc(C2C3C(C)=NN=C3CC(C)(O)C2C(C)=O)cc1 (configuration not stated)
-6%,CC1CN(c2ccc(C(F)(F)F)cc2[N+](=O)[O-])CCN1S(C)(=O)=O (configuration not stated)
-19%,CCCn1c(SCC(=O)c2ccc(CC)cc2)n[nH]c1=O
